PV pol inh = inhibitors of poliovirus RNA polymerase binding and polymerization. AID 588519. % elongation, % (compound at 16.7 µg/mL). 0.66% of 150,000 active. poliovirus polymerase elongation, fluorescence polarization; stronger effect = lower value. P03300; in the data active = % elongation below about 90%; note: some results filed as inactive read as strong as hits
Target sequence (P03300 1749-2209 limits assumed): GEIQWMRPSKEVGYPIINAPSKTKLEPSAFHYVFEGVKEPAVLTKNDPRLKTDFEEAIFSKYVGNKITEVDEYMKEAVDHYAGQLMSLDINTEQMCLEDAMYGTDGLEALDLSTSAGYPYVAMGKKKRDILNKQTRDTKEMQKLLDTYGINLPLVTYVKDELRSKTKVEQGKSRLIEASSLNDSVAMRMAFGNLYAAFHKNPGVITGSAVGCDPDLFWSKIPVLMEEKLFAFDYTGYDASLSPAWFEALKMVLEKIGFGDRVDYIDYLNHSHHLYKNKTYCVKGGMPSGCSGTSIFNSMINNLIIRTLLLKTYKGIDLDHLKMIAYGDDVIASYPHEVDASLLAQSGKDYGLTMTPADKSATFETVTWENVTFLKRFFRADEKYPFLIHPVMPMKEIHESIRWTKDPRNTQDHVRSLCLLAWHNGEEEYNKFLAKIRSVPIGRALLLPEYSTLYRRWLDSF
Mtb MenB inh = blocks the Mycobacterium tuberculosis MenB enzyme; 0.43% of 100,000 active; P9WNP5; MenB enzyme assay, absorbance read-out; some hits fall short of the stated cut; inhibition, %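 (about 12 µg/mL by stock and volumes)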;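 active = mean of two replicates above 30%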;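 note: 0% = no compound and 100% = wells with inactive enzyme; the first replicate is given; strong numbers were not always called active; inactives centre near -10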
Target sequence (P9WNP5 whole entry, looked up): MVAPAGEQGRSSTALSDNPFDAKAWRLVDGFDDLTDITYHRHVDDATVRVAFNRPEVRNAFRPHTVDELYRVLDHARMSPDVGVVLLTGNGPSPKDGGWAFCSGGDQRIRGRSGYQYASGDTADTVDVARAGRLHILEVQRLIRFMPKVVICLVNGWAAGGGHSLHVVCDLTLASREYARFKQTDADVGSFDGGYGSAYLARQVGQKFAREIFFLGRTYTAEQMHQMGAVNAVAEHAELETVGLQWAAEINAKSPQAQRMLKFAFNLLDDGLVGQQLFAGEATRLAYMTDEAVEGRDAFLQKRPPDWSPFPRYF
MbtI inh = MbtI salicylate synthase inhibition; P9WFX0; purified MbtI enzyme, fluorescence intensity read-out; inhibition, %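 (about 17 µg/mL by stock and volumes)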; 0.89% of 100,000 active; AID 493033;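 active = above 50% in both replicates, above 80% if mildly self-fluorescent; inactive = the rest, strongly fluorescent compounds included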;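 note: 0% = mean of negative and 100% = mean of positive controls; one replicate is shown; some compounds called inactive have numbers as strong as hits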
PV pol inh intensity = second read-out of PV pol inh, no call of its own (marks repeat the call); % elongation; measured here: total intensity read-out; formula for this scale not given here;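 total fluorescence in place of polarization; lower means less elongation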
The depositor's hits bear a star; i = inactive; / = no result given; & = joins results of further samples.

SMILES	PV pol inh	PV pol inh intensity	Mtb MenB inh	MbtI inh
COc1cc(OC)cc(C(=O)Nc2cc(C(=O)N3CCCC3)ccc2N2CC3CC(C2)c2cccc(=O)n2C3)c1 (stereo not given)	100	104	9	-6
CN(Cc1ccccc1)c1ncnc2c1oc1ccccc12	106	109	-33	-15
Cc1ccc(NC(=S)NC2CCS(=O)(=O)C2)cc1 (stereo not given)	100	103	-19	-7
COCCNC(=S)N1CCC(NC(=O)Nc2ccc(F)cc2)CC1	104	102	-38	-1
O=C1C(=Cc2ccco2)C(=O)N(c2ccccc2)C(=O)N1c1ccccc1	107	105	-41	-3
N#Cc1cnc2c(C(N)=O)cnn2c1N	98	102	11	/
CSc1nc2ccc(NC(=O)c3ccc(F)c(F)c3)cc2s1	105	109	/	20
COc1cc2nc(C3CCC3)n(N)c(=O)c2cc1OC	102	103	8	2
O=C(Nc1ccc(Cl)c(C(F)(F)F)c1)C(=S)NCc1ccco1	105	107	-24	/
COC(=O)c1cc(=O)n2c(n1)sc1cc(OC)ccc12	105	102	6	7
CC1CCCCC1NC(=O)c1cccc2c1SCCC2=O (stereo not given)	102	102	-27	-1
Cc1ccc(NS(=O)(=O)c2c(C)nn(C)c2Cl)c(C)c1	101	97	2	6

Compound profiles, from the list above. Screens in order: PV pol inh	PV pol inh intensity	Mtb MenB inh	MbtI inh
`O=C1C(=Cc2ccco2)C(=O)N(c2ccccc2)C(=O)N1c1ccccc1` is entered as 107	105	-41	-3
`CSc1nc2ccc(NC(=O)c3ccc(F)c(F)c3)cc2s1` is entered as 105	109	/	20

The list goes on:
SMILES	PV pol inh	PV pol inh intensity	Mtb MenB inh	MbtI inh
CCCCNS(=O)(=O)c1ccc2nc(SCC(=O)C(C#N)c3ccccc3)[nH]c2c1 (stereo not given)	107	109	-2	57
O=C(COC(=O)c1ccc(S(=O)(=O)NCc2ccco2)cc1)Nc1ccccc1	105	109	-14	-2
O=S1(=O)CCN2C=CC=NC2=N1	85	129	-21	15
N[C@@H](CC1CCCCC1)C(=O)O	100	104	-18	-7
COc1ccc(-c2noc(N(C)CC(=O)Nc3ccc(Oc4ccccc4)cc3)n2)cc1	103	103	-11	-6
CCOC(=O)c1oc2ccccc2c1CN(C)CCc1ccccc1	101	102	9	8
O=C(CSc1nc2ccccc2o1)NC(=O)NC1CCCC1	102	106	-28	18
N#CCc1ccc(NC(=O)CSCc2ccccc2)cc1	100	101	-10	4
Cc1cc(C)n2c3c(c(C#N)c2n1)CCCC3	102	104	-12	-4
CC(OC(=O)C1CC1)C(=O)Nc1cccc(Cl)c1 (stereo not given)	108	109	-8	-3
CC(=O)NCCNc1nc2c(-c3ccc(Cl)cc3)nnn2c2ccccc12	103	105	1	-3
O=C(O)c1c[nH]c(=O)n(-c2ccccc2F)c1=O	103	104	-2	-1
CCN1C(=O)C(C(=O)O)C(=O)c2ccccc21 (stereo not given)	105	102	-42	/
CCNC(=S)N/N=C/C1=CCC2CC1C2(C)C (stereo not given)	102	100	-74	16
Cc1cc(C(F)(F)F)n2ncnc2n1	98	102	-15	/
CN(C)c1ccc(Nc2cc(N3CCC(=O)CC3)c3noc4c3c2C(=O)c2ccccc2-4)cc1	103	102	-29	-3
CCNc1nnc(CSc2nc3ccccc3s2)s1	104	106	-13	/
COc1cccc(-c2nc(-c3ccc(NC(=O)c4cccnc4)cc3)no2)c1	101	103	-2	-9
CCOc1ccc2nc(NC3=NCCC(=O)N3)nc(C)c2c1	101	103	-78	i
CNC(=O)c1cc2sc(Cl)cc2n1C	101	101	-6	7
O=C(CN1CCN(c2ccccc2F)CC1)C12CC3CC(CC(C3)C1)C2	103	110	-31	-20
O=C(Cc1cccc(F)c1)N1CCN(CC(=O)N2CCCC2)CC1	101	104	9	0
Cc1ccc(CNC(=O)C2CCCN(S(=O)(=O)c3c(C)n[nH]c3C)C2)cc1 (stereo not given)	99	102	10	-1
CCC1CCCCN1C(=O)c1cc(-c2ccc(Cl)cc2)on1 (stereo not given)	102	106	-20	-10

An excerpt of these results, comma-delimited.
SMILES,PV pol inh,PV pol inh intensity,Mtb MenB inh,MbtI inh
CCNC(=S)N/N=C/C1=CCC2CC1C2(C)C (stereo not given),102,100,-74,16
COc1cccc(-c2nc(-c3ccc(NC(=O)c4cccnc4)cc3)no2)c1,101,103,-2,-9

Other results:
SMILES	PV pol inh	PV pol inh intensity	Mtb MenB inh	MbtI inh
CC1CC(C)CN(c2nc3ccccc3c(=O)n2-c2ccc(Cl)cc2)C1 (stereo not given)	102	100	-29	9
CNCCOc1ccccc1	102	103	-14	-4
O=C(Nc1ccccc1Cl)c1cn2ccccc2n1	104	103	/	-18
COC(=O)C1CCN(C(=O)COC(=O)Cc2coc3cc(C)ccc23)CC1	109	113	-7	-5
COc1cc(SC)ccc1C(=O)Nc1nnc(C(F)(F)F)s1	105	109	-19	/
COc1cc2[nH]c(=O)n(CCCCCC(=O)NC3CCCC3)c(=O)c2cc1OC	101	104	-81	0
CCC1CCCCN1C(=O)Cn1c(=O)n(C2CCCC2)c(=O)c2ccccc21 (stereo not given)	103	105	-5	3
CC(C)(C)N1COc2ccc3c(-c4ccccc4)cc(=O)oc3c2C1	103	103	-41	31
O=C1CCCC/C1=C/NC1CCCCC1	99	94	/	2
CC1CC(C)CN(C(=O)COC(=O)Cc2cn3ccsc3n2)C1 (stereo not given)	97	98	-29	2
COC(=O)C1=C(C)NC(C)=C(C(=O)OC)C1C(=O)OCc1cccc(S(=O)(=O)N(C)C)c1	103	100	-17	-5
CNC(=O)COc1coc(CN2CCc3ccccc32)cc1=O	105	109	-18	8
N#Cc1ccccc1NC(=O)CCCc1ccccc1	102	102	-29	-13
O=C1OCCC1Sc1ccc(Cl)cc1 (stereo not given)	100	103	9	17
CCOc1ncnc2c1cnn2-c1ccccc1	103	103	-7	10
CCn1c(C(C)Oc2ccc(Cl)cc2)n[nH]c1=S (stereo not given)	103	96	-16	89*
O=C(NCc1ccccc1)C1CCN(C(=O)c2ccccc2)CC1	100	98	-15	-1
C=CCNC(=S)Nc1ccccc1	101	102	-19	0
NNc1nc(-c2ccccc2)cc(-c2ccccc2O)n1	101	101	-81	-5
Cc1ccc(C(=O)O)o1	101	103	/	10
CC(C)NC(=O)Cn1c2ccccc2c2cn[nH]c(=O)c21	104	105	-1	47
O=C1OCC2=C1C(c1ccc3c(c1)OCO3)Sc1ccccc1N2 (stereo not given)	100	102	1	-17
COc1ccc2c(c1)C(C)CC(C)[N+]2(C)C (stereo not given)	103	103	/	-8
CC(C)c1ccc2oc(-c3ccc(N)cc3)nc2c1	112	110	-53	/
COC(=O)C(F)C(=O)OC	88*	91*	11	-1
CN1C(=O)/C(=C/c2cccs2)SC1=S	102	102	27	-1
Cc1ccc(C)c2[nH]c(=O)c(CCNC(=O)C(C)(C)Oc3ccc(Cl)cc3)cc12	104	107	-16	-10
O=C1CCCc2cc(S(=O)(=O)NCC3CCN(CCc4cccs4)CC3)ccc2N1	101	101	-27	-30
CCCN1CCN(C(=O)c2sc3nc4n(c(=O)c3c2C)CCCC4)CC1	105	105	-15	1
CCOC(=O)c1cc(NC(=O)c2ccoc2C)cc(C(=O)OCC)c1	98	98	-10	4
COc1ccc(C2CC(=O)Nc3ccccc3S2(=O)=O)cc1OC (stereo not given)	99	100	-3	16
O=C(NCCc1ccccc1)[C@@H]1CCCN1C(=O)c1cccs1	101	109	-15	-14
O=C1CC(N2CCN(S(=O)(=O)c3cccc(C(F)(F)F)c3)CC2)C(=O)N1Cc1ccccc1 (stereo not given)	103	105	-1	-3
COCCNC(=O)c1c[nH]c2ccc(S(=O)(=O)N3CCc4ccccc43)cc2c1=O	97	103	9	19
Oc1ccccc1OCC(O)c1ccccc1 (stereo not given)	102	99	/	-11
CCn1cc(C(=O)OCC(=O)N2C(C)CCCC2C)c(=O)c2cc(F)c(N3CCN(C(C)=O)CC3)cc21 (stereo not given)	100	104	-21	18
O=S(=O)(c1ccc2ccccc2c1)N1CCCCCC1	102	101	-11	-3
CCc1nc(C)ccc1OCC(=O)O	102	101	-8	3
CC(C(=O)N1c2ccccc2CC1C)N(C)CCOc1ccc(Cl)cc1 (stereo not given)	99	102	-14	14
COc1cc(C=Nc2ccc(C)cc2)ccc1OC(C)=O	102	108	-14	-5
Cc1ccc(NC(=O)c2ccccc2-n2cccc2)cc1	103	102	/	-2
Cc1c(C(=O)CSc2ncc(C#N)c(N)n2)c2ccccc2n1C	102	103	30*	/
Fc1ccc(CNC2CCCC2)cc1	104	102	-2	-6
Cc1nn(-c2ccccc2)c2nc(-c3cccs3)cc(C(=O)NC(C)(C)C)c12	104	103	-52	27
CN(C)C=Nc1ccc(S(=O)(=O)N(C)c2nccs2)cc1	99	99	-12	6
COc1ccc(N=C2C(=O)N(CN3CCOCC3)c3ccccc32)cc1	104	102	-65	13
CCS(=O)(=O)N1Cc2ccccc2CC1C(=O)NC1CCCCCC1 (stereo not given)	101	95	-7	9
COC(=O)C1=C(CSc2nnc(N)s2)NC(=O)NC1c1cccc(OC)c1 (stereo not given)	99	102	3	5

Sorted by molar mass (high to low): part of the list above.
SMILES	PV pol inh	PV pol inh intensity	Mtb MenB inh	MbtI inh
Cc1nn(-c2ccccc2)c2nc(-c3cccs3)cc(C(=O)NC(C)(C)C)c12	104	103	-52	27
CCS(=O)(=O)N1Cc2ccccc2CC1C(=O)NC1CCCCCC1 (stereo not given)	101	95	-7	9
Cc1c(C(=O)CSc2ncc(C#N)c(N)n2)c2ccccc2n1C	102	103	30*	/
CN(C)C=Nc1ccc(S(=O)(=O)N(C)c2nccs2)cc1	99	99	-12	6
O=S(=O)(c1ccc2ccccc2c1)N1CCCCCC1	102	101	-11	-3
CCc1nc(C)ccc1OCC(=O)O	102	101	-8	3
Fc1ccc(CNC2CCCC2)cc1	104	102	-2	-6

New compounds follow:
SMILES	PV pol inh	PV pol inh intensity	Mtb MenB inh	MbtI inh
CCN(C(=O)CSc1nc2nc(C)cc(C)n2n1)c1ccccc1	100	103	0	-35
CCOC(=O)c1cc2c(C)nn(-c3ccccc3)c2s1	103	103	5	-5
Cc1cnc(C(=O)OCC(=O)c2ccc(Cl)s2)cn1	100	101	-2	-8
COc1ccc(C=NN2CCN(Cc3ccccc3)CC2)c(OC)c1OC	99	102	4	2
CS(=O)(=O)c1sc(C(=O)O)c2c1C=CCC2	108	106	-23	3
CCSc1nc(C)cc(=O)[nH]1	100	100	-9	15
CCCN(CCC)C(=O)C1=C(C)C(=O)OC12CCCCC2	103	103	-12	0
CCCC(=O)Nc1ccccc1OC(F)(F)F	105	100	2	/
COc1ccc(S(=O)(=O)n2nnc3ccccc32)cc1C(C)(C)C	103	105	-30	-1
Cc1c(S(=O)(=O)O)oc2c1C(=O)C(=O)c1c-2ccc2c1CCCC2(C)C	87*	88*	-4	-12
O=C(CSc1nnc(-c2ccccc2)o1)N1c2ccccc2CCc2ccccc21	104	102	-31	4
FC(F)Oc1ccccc1NC(=S)Nc1cccnc1	103	103	-8	5
CCN(CC(=O)NCc1cccs1)C(=O)c1cccc(F)c1	111	117	-14	-1
N#CCc1ccc(OC(F)F)cc1	31*	44*	-14	0
C=CCn1c(C(C)C)nc2ccccc21	101	104	17	12
Cc1ccc(N(CC(=O)Nc2ccccc2C(=O)NCc2ccco2)S(C)(=O)=O)cc1Cl	21*	33*	-14	1
N#Cc1cccc(NC(=S)NC2CC2)c1	101	106	-27	-7
CCOC(=O)c1c(/N=C/c2c(O)n(C)c3ccccc23)sc2c1CCC2	104	109	-24	1
CCCCC/C=C\C/C=C\C/C=C\C/C=C\CCCC(=O)OC(CO)CO	101&101	105&104	-2	-24
Cc1cc(/C=C(\C#N)C(=O)NCc2cccs2)c(C)[nH]1	103	104	-52	-2
CCN(CC(=O)N1N=C(c2ccccc2)CC1c1ccc(OC)cc1)Cc1nc2ccccc2c(=O)[nH]1 (stereo not given)	105	111	-28	-5
c1cc2c(cc1CNc1ccc(N3CCCC3)cc1)OCO2	105	103	-37	43
O=C1CCCN1CCCNc1nn2nnnc2c2ccccc12	101	103	-4	-10
CC(C)(C)c1ccc(C(=O)Nc2ccc(-c3nnc4n3CCCCC4)cc2)cc1	104	95	-27	-1
CCOc1ccc(CC(=O)NCc2ccc3[nH]c(C)cc3c2)cc1	101	96	-36	-7
N=C1C(c2nc3ccccc3[nH]2)=C(O)CN1CCCN1CC(O)=C(c2nc3ccccc3[nH]2)C1=N	107	109	-38	-20
O=C(NCCc1ccccc1)c1ccc(Cl)nc1	103	101	-19	-8
Cc1[nH]c(=O)nc(SCc2ccc(Cl)c(Cl)c2)c1C#N	109	115	-23	-11
C=CCn1c(Cc2cccs2)nnc1SCc1c(Cl)cccc1Cl	100	104	-11	-12
O=C1CCC(C(=O)OCc2ccccc2)N1 (stereo not given)	98	99	/	3
CCn1c2c(c3cc(Br)ccc31)CCC/C2=N\O	101	103	-39	49
CCOC(=O)c1cc2c(NCc3ccc(Cl)cc3Cl)nccc2nc1C(F)(F)F	101	107	11	1
O=C(O)c1cc(=O)[nH]c2ccccc12	102	102	/	-23
CCCNC(C)(C)COC(=O)c1ccccc1	99	102	-1	-3
CCCn1c(N2CCCCC2)nc2c1c(=O)[nH]c(=O)n2C	105	110	-8	/
COc1cccc(NC(=O)c2oc3ccc(S(=O)(=O)N4CCCCC4)cc3c2C)c1	101	103	7	-10
CCc1ccccc1NC(=O)C(Cc1ccccc1)N1C(=O)c2ccccc2C1=O (stereo not given)	105	106	-20	/

Screening results: PubChem, ICCB-Longwood Screening Facility, Harvard Medical School
